ClpP mod: qHTS Assay for Activators of ClpP; 340,000 tested, 1.9% active; Potency, µM (series often up to 57.5 µM), for inactives: top-dose activity change, negative = active; purified B. subtilis ClpP, FRET peptide cleavage, 20 min; AID 651965, 2013; ATP-dependent Clp protease proteolytic subunit (Bacillus subtilis (strain 168)), P80244; active = well fitted falling curve with a large enough effect; inconclusive = small, poorly fitted or top-dose-only effect; inactive = no such curve, though single readings can be large or run the other way; note: potency is the fitted concentration of half-maximal effect; the source files actives as falling curves though it sought activators and does not explain the sign; nearly all actives have a fitted effect of over 65% in size; many hits overshoot -100%
Target sequence (P80244 whole entry, looked up): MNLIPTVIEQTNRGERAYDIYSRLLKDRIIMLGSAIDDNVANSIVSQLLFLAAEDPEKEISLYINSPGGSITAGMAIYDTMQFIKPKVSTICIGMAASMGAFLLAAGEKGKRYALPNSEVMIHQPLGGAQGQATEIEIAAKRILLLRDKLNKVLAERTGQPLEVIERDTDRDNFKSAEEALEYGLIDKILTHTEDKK
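Purified B. subtilis ClpP, 10 microg/mL final in Tris/HCl pH8 with KCl, BSA, glycerol and Tween-20, cleaved an Abz/nitrotyrosine-quenched decapeptide. Fluorescence (ex 320, em 430) was read at 0 and 20 min at room temperature. Delta was normalized to 5.8 microM ADEP and DMSO/no-enzyme controls.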
gsp antag: gsp mutant antagonism; gsp-mutant cells, cAMP HTRF, 30 min; control for the full effect not named in the record; Potency, µM (doses to about 76.9 µM), inactives show at the highest dose activity change, negative = inhibition, actives largely listed as inhibitors; 340,000 tested, 0.4% active; AID 624288; active = falling curve of any shape with a large fitted effect; inconclusive = falling curve, mostly with a smaller effect; inactive = flat or rising curve; cell line not stated here;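 note: intracellular cAMP measured with PDE inhibitor Ro 20-1724 present during compound exposure; potency is the fitted concentration of half-maximal effect; % is set by controls: 0 for no effect and ±100 for the full control effect; nearly all actives have a fitted effect of over 65% in size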
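HTRF cAMP read-out (cAMP-d2 plus anti-cAMP antibody-K in lysis buffer, 30 min RT). Before lysis, cells are exposed to compounds with […] for 30 min at 37C in DPBS containing Ca/Mg, BSA and Tween 20.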
Sfp PPTase inh: blocks B. subtilis Sfp PPTase activity; Q9F4F7; Biochemical Sfp PPTase activity, qHTS; Potency, µM, without a hit: max response, negative = inhibition, hits mostly inhibitors; 310,000 tested, 3.5% active; active = well fitted inhibition curve with a large enough effect; inconclusive = small, poorly fitted or top-dose-only effect, or another doubt; inactive = no such curve, though single readings can be large or run the other way;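 note: the enzyme is Sfp with the accession as filed and its product quenches rhodamine fluorescence; potency is the fitted concentration of half-maximal effect; 0% = enzyme reaction without inhibitor and -100% = no enzyme wells; top concentration of the series not given in the record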
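Fluorescence-quenching assay: 15 nM Sfp-PPTase preincubated 15 min at room temperature with compound, then 5 uM rhodamine-CoA and 12.5 uM BHQ-2-labelled YbbR peptide added. Fluorescence (ex 525/em 598 nm) read at start and after 30 min; difference gives rate.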
gsp agonist: agonists of gsp mutant (McCune-Albright syndrome); gsp mutant cells, cAMP HTRF, 30 min; control for the full effect not named in the record; Potency, µM (titrated, usually from 76.9 µM), for inactives: at the top dose activation (cAMP increase), hits mostly activators; 340,000 tested, 0.13% active; active = well fitted activation curve with a large enough effect; inconclusive = small, poorly fitted or top-dose-only effect, or another doubt; inactive = no such curve, though single readings can be large or run the other way; cell line not stated here;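 note: phosphodiesterase inhibitor Ro 20-1724 added with compounds to block cAMP breakdown; potency is the fitted concentration of half-maximal effect; nearly all actives have a fitted effect of over 60% in size; about a fifth of the inactives were tested at one dose only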
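Cells in DMEM/10% FBS with G418 were pretreated with compounds in DMSO plus […] (300 uM stock) for 30 min at 37C. cAMP was measured by HTRF (cAMP-d2 plus anti-cAMP antibody-K) after 30 min at room temperature.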
TRPML1 inh: inhibitors of human TRPML1 channel. TRPML1-inducible cells, Ca2+ dye fluorescence, FDSS; stronger effect = lower value; inhibition of EC80 agonist-evoked calcium signal. activity change, negative = inhibition, % (no concentration beside the values). 390,000 tested, 0.02% active; in the data active means activity change below about -50%; inconclusive means about -30% to -50%; inactive means above about -30%;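 note: stimulus is agonist 54-4 at its EC80 concentration; % is set by controls: 0 for no effect and ±100 for the full control effect; compound concentration not given in the record; the text of the record puts the active cut at -80%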
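TRPML1-DL cells, Tet-induced overnight (~16 h, 37 °C) at 1,500 cells/well, were loaded with Ca8 no-wash dye plus quencher for 45-90 min at room temperature. Compounds were pinned during FDSS kinetic reading; agonist 54-4 at EC80 (4 uM final) then added.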
TRPV1 PAM: human TRPV1 potentiation; Q8NER1; TRPV1-expressing cells, Fluo-8 calcium influx, capsaicin EC20 potentiation; host cell line not named in the record; control for the full effect not named in the record; potentiation, % at 8.33 µM; 320,000 tested, 0.02% active; active means potentiation above 80%; inconclusive means 30% to 80%; inactive means below 30%; note: 0% is about no effect
Target sequence (Q8NER1 whole entry, looked up): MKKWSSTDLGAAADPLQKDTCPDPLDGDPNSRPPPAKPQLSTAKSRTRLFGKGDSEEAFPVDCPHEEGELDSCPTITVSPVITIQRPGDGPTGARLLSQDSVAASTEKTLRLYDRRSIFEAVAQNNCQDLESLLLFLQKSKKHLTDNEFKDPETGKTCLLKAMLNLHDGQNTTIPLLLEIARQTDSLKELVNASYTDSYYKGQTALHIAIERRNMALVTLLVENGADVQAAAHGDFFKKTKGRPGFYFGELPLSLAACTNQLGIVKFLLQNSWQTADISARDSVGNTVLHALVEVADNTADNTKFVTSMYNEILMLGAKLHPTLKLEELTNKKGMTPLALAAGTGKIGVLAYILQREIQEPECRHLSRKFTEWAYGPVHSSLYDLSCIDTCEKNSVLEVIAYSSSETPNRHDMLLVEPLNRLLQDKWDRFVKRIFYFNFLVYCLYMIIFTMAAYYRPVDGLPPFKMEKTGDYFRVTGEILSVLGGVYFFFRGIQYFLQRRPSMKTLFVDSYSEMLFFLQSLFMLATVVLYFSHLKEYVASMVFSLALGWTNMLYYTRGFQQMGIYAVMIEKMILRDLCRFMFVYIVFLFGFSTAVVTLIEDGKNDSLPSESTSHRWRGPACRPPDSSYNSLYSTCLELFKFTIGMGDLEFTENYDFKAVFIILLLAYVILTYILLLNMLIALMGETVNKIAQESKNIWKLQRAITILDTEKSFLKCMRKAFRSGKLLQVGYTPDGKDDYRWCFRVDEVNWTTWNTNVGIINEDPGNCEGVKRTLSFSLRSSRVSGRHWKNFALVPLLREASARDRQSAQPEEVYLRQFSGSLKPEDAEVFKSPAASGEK
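Cells expressing TRPV1 were dye-loaded with Fluo-8 and read kinetically: 10 s baseline, 3 min after compound (agonist portion), then 2 min after EC20 capsaicin (allosteric enhancer portion). Calcium-bound dye fluorescence at 480/520 nm.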
Menin MLL FP FL: inhibitors of human menin-MLL interaction, wild-type MLL peptide; Fluorescence polarization, fluorescein-MLL peptide displacement from menin; FP activity change, % at 61.4 µM; 290,000 tested, under 10 active; AID 1766; inconclusive = falling polarisation curve, or a change in total fluorescence; inactive = total fluorescence flat and polarisation flat or rising; no compound was filed as active; the % refers to the polarisation; negative = inhibition;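 note: % of control where 0% means no effect; inhibitors lower the polarisation; unlabelled MLL peptide was the positive control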
* hit, by the source's call; ? = inconclusive; / = no result given; & = joins results of further samples; [ ] = dose if it differs, or a comment.

1. Cc1ccc(C(=O)/C=C/c2ccc3c(c2)OCO3)o1
2. CCOC(=O)NC(=O)CSc1nc2ccc(OCC)cc2[nH]1
3. COc1cc(CC(=O)OCC(=O)NC2CCCCC2)cc(OC)c1OC
4. Cc1nc2ccc(N3C(=O)CCC3=O)cc2[nH]1
5. COC(=O)c1ccc(OCC(O)CN2C(=O)NC(C)(C)C2=O)cc1 (stereo not given)
6. O=C(N=Nc1c(O)[nH]c2ccc([N+](=O)[O-])cc12)c1ccccc1Cl
screen / no.	1	2	3	4	5	6
ClpP mod	-4.8%	1.1%	0.4%	-1.3%	-0.2%	0.7%
gsp antag	-15%	-5%	-16%	0%	13%	-18%
Sfp PPTase inh	2%	10%	23%	-9%	14%	?
gsp agonist	3%	2%	11%[15.4 µM]	-7%	27%	17%
TRPML1 inh	-1	-10	39	0	-14	-6
TRPV1 PAM	-26	/	2	1	-1	0
Menin MLL FP FL	3.8	4.0	-3.3	2.0	1.4	-0.9

7. COC(=O)C(=Cc1ccc(OCc2ccc([N+](=O)[O-])cc2)c(OC)c1)C(=O)OC
8. CC(=O)C1=C(O)C(=O)N(CCC(=O)O)C1c1ccccc1[N+](=O)[O-] (stereo not given)
9. Cc1nc(SCC(=O)c2c(C)[nH]c3ccccc23)c2c(=O)n(C)c(=O)n(CC(C)C)c2n1
10. COc1cccc(OC)c1/C(O)=C(\C#N)c1nc2ccccc2[nH]1
11. Cc1ccc(OCCCCN2CCCCC2)cc1
12. COc1ccccc1Nc1nnc(SCc2cc(=O)n3cc(C)ccc3n2)s1
screen / no.	7	8	9	10	11	12
ClpP mod	-6.1%	/	/	-4.3%	1.8%	/
gsp antag	5%	6%	/	-5%	8%	-9%
Sfp PPTase inh	?	11µM*	7%	-6%	17%	10%
gsp agonist	1%	4%	/	-2%	-35%[inhibitor]	-34%[inhibitor]
TRPML1 inh	19	2	/	-20	19	6
TRPV1 PAM	8	1	-2	23	-9	5
Menin MLL FP FL	1.6	2.2	4.7	?	-1.0	2.9

13. Cc1ccc(-c2cc(C(=O)N3CCCCCC3)no2)cc1
14. CCOC(=O)C1=NOC(CNC(=O)c2c(-c3ccccc3Cl)noc2C)C1 (stereo not given)
15. CN(c1ccccc1)S(=O)(=O)c1ccc(C(=O)Nc2ncccc2O)cc1
16. N#Cc1cc(N)c(Nc2ccccc2)cc1C#N
17. COc1ccc(/C=N\NC(=O)CNC(=O)C(c2ccccc2)c2ccccc2)cc1[N+](=O)[O-]
18. Cc1ccc(C2c3sc(=O)[nH]c3SC3C(=O)NC(=O)C32)cc1 (stereo not given)
screen / no.	13	14	15	16	17	18
ClpP mod	/	0.4%	-1.8%	-11%	/	0.6%
gsp antag	0%	7%	3%	?	-3%	5%
Sfp PPTase inh	6%	-6%	/	-10%	-9%	-3%
gsp agonist	2%[15.4 µM]	6%	?	-15%	-4%[15.4 µM]	?
TRPML1 inh	8	3	1	-1	-2	48
TRPV1 PAM	-4	-5	0	2	8	-39
Menin MLL FP FL	-7.6	-0.6	/	4.3	4.1	5.4

19. CNC(=O)NC(=O)CSc1nc(-c2cccs2)c(C#N)c(=O)[nH]1
20. O=C(CCCc1ccccc1)Nc1ccc(Br)cc1F
21. CCCN1Cc2cccc(C(=O)Nc3ccc(CN4CCCC4)cc3)c2C1=O
22. CC(C)CC(=O)O/N=C1\C(=O)N(Cc2ccc(Cl)cc2)c2ccc([N+](=O)[O-])cc21
23. COc1cc(OC)cc(C(=O)NCCCn2ccnc2)c1
24. COc1ccc(C(=O)NC(C)c2nc3ccccc3[nH]2)cc1OC (stereo not given)
screen / no.	19	20	21	22	23	24
ClpP mod	/	-1.4%	1.1%	/	/	0.3%
gsp antag	0%	4%	1%	/	4%	7%
Sfp PPTase inh	8%	14%	10%	1%	6%	3%
gsp agonist	?	5%[15.4 µM]	3%	/	?	-21%
TRPML1 inh	17	-9	-2	/	2	5
TRPV1 PAM	15	2	2	26	10	-2
Menin MLL FP FL	1.5	-2.2	2.8	-2.2	-2.3	1.7

25. NC(=O)c1ccc(NC(=O)Cn2c(=O)n(-c3ccccc3)c(=O)c3oc4ccccc4c32)cc1
26. Cc1ccc(C)c2[nH]c(=O)c(CN(CCN3CCCC3)C(=O)Nc3ccc(F)cc3)cc12
27. Cc1ccc(S(=O)(=O)c2nnn3c2nc(NCCCN2CCCC2=O)c2ccccc23)cc1C
28. O=C(NCCCN1CCc2ccccc2C1)Nc1ccc(Br)cc1
29. C=CCN(CC(=O)c1sc(C(=O)OCC)nc1C)c1cccc(Br)c1
30. C/C(CC(=O)NCc1ccco1)=N\NC(=O)Cc1ccccc1
screen / no.	25	26	27	28	29	30
ClpP mod	/	-9.7%	3.6%	-2.3%	-1.2%	0.8%
gsp antag	6%	1%	6%	13%	-17%	6%
Sfp PPTase inh	1%	-7%	-5%	-17%	/	14%
gsp agonist	-4%[15.4 µM]	2%	?	0%	/	18%
TRPML1 inh	-9	5	-10	25	17	-4
TRPV1 PAM	-7	2	3	-11	/	6
Menin MLL FP FL	1.3	4.8	-7.5	3.9	/	0.9

31. COC(=O)c1ccc(C(C2C(=O)CC(C)(C)CC2=O)C2C(=O)CC(C)(C)CC2=O)cc1
32. NC(=O)CC(NC(=O)c1ccccc1)c1ccc(N2CCN(c3ccccc3)CC2)c([N+](=O)[O-])c1 (stereo not given)
33. CN1CCN(S(=O)(=O)c2cccc(C(=O)N(c3ccccn3)C3CCCCC3)c2)CC1
34. O=C(NC1=NCCS1)c1sc2ccccc2c1Cl
35. Cc1noc(C)c1CSCC(=O)N1CCN(c2ccc(F)cc2)CC1
36. CCc1ccc(NC(=S)N(CCN2CCOCC2)Cc2ccccc2F)cc1
screen / no.	31	32	33	34	35	36
ClpP mod	-0.2%	2.2%	-1.4%	-20%	2.2%	/
gsp antag	-2%	-9%	7%	-16%	-20%	-11%
Sfp PPTase inh	5%	-15%	6%	0%	0%	9%
gsp agonist	-5%[15.4 µM]	5%	-47%[inhibitor]	2%	-32%[inhibitor]	16%[15.4 µM]
TRPML1 inh	-13	6	7	5	7	10
TRPV1 PAM	2	0	-6	-2	0	-12
Menin MLL FP FL	2.6	-4.0	1.4	1.1	-1.4	3.0

Compounds from the list above containing a nitro group on carbon (six):
6. O=C(N=Nc1c(O)[nH]c2ccc([N+](=O)[O-])cc12)c1ccccc1Cl
7. COC(=O)C(=Cc1ccc(OCc2ccc([N+](=O)[O-])cc2)c(OC)c1)C(=O)OC
8. CC(=O)C1=C(O)C(=O)N(CCC(=O)O)C1c1ccccc1[N+](=O)[O-] (stereo not given)
17. COc1ccc(/C=N\NC(=O)CNC(=O)C(c2ccccc2)c2ccccc2)cc1[N+](=O)[O-]
22. CC(C)CC(=O)O/N=C1\C(=O)N(Cc2ccc(Cl)cc2)c2ccc([N+](=O)[O-])cc21
32. NC(=O)CC(NC(=O)c1ccccc1)c1ccc(N2CCN(c3ccccc3)CC2)c([N+](=O)[O-])c1 (stereo not given)
screen / no.	6	7	8	17	22	32
ClpP mod	0.7%	-6.1%	/	/	/	2.2%
gsp antag	-18%	5%	6%	-3%	/	-9%
Sfp PPTase inh	?	?	11µM*	-9%	1%	-15%
gsp agonist	17%	1%	4%	-4%[15.4 µM]	/	5%
TRPML1 inh	-6	19	2	-2	/	6
TRPV1 PAM	0	8	1	8	26	0
Menin MLL FP FL	-0.9	1.6	2.2	4.1	-2.2	-4.0

Remaining list, next part.
37. Cc1c(C(=O)OCC(=O)Nc2c(C)n(C)n(-c3ccccc3)c2=O)oc2ccccc12
38. Cc1cc(C)c2c(SC(C)C)nc(N)nc2n1
39. CCC(C)Sc1nc2c([nH]c3ccccc32)c(=O)n1C (stereo not given)
40. O=C(Nc1ccc(F)cc1)C1CCN(S(=O)(=O)c2cccs2)CC1
41. CN(CCO)S(=O)(=O)c1ccc2c(c1)C(=NN)c1cc(S(=O)(=O)N(C)CCO)ccc1-2
42. Cc1cc(C)n(S(=O)(=O)/C=C/c2ccccc2)n1
screen / no.	37	38	39	40	41	42
ClpP mod	/	-18%	-4.2%&-2.8%	0.0%	-1.5%	1.0%
gsp antag	7%	7%	1%	-6%	-3%	12%
Sfp PPTase inh	5%	7%	5%	5%	26%	4%
gsp agonist	-2%[15.4 µM]	4%	2%	-170%[inhibitor]	-4%	1%
TRPML1 inh	7	1	5&-11	13	-13	9
TRPV1 PAM	5	-6	-12	-19	-21	-7
Menin MLL FP FL	1.7	-2.7	0.6	3.2	-2.2	-0.2

43. CCn1c(COc2ccccc2C)nnc1SCC(=O)NCc1ccccc1
44. COc1ccccc1-c1sc2ccccc2c1-c1ccc(O)cc1
45. O=C(Nc1ccccc1SCC1CSc2nc3ccccc3c(=O)n21)c1ccccc1Cl (stereo not given)
46. Cc1cc(C)nc(NS(=O)(=O)c2ccc(NC(=O)C3CC(=O)N(c4ccccc4)C3)cc2)n1 (stereo not given)
47. COc1ccc(S(=O)(=O)N2CCCOC2CNC(=O)C(=O)NCc2ccncc2)cc1 (stereo not given)
48. Cc1cccc2c(C(=O)Nn3cnnc3)cc(-c3ccccc3Cl)nc12
49. COCCNC(=O)c1cc2oc3ccccc3c2n1C
50. Cc1ccc(-c2nn(-c3cccc(F)c3)cc2CNCCc2ccncc2)o1
51. C[C@@H]1NS(=O)(=O)[C@H]2C[C@@H]3C=C[C@]2(O3)[C@H]1OC(=O)c1ccccc1Br
screen / no.	43	44	45	46	47	48	49	50	51
ClpP mod	1.4%	20µM*	1.0%	-0.2%	-1.0%	/	-19%	/	1.0%&-1.8%
gsp antag	-8%	-12%	-7%[15.4 µM]	1%	3%	-13%	-12%	-20%	1%
Sfp PPTase inh	4%	/	16%	-11%	8%	12%	13%	-5%	/
gsp agonist	-53%[inhibitor]	/	8%	-9%	-4%	-5%[15.4 µM]	4%	-6%[15.4 µM]	45%
TRPML1 inh	12	-13	4	-19	6	-7	1	36	-21
TRPV1 PAM	2	/	14	3	-10	-3	12	-6	6
Menin MLL FP FL	1.3	/	11	-1.7	/	3.4	-1.6	-0.6	/

Bioassay records (PubChem)
